PINK1 modulator: changes PINK1 expression; 0.2% of 410,000 active; Potency, µM (titrated, usually from 76.6 µM), for inactives: at the top dose activation (PINK1 increase), most hits filed as activators; PINK1 immunofluorescence, high-content cytometry, 24 h; active = well fitted activation curve with a large enough effect; inconclusive = small, poorly fitted or top-dose-only effect; inactive = flat fitted curve, though single readings scatter; cell line not stated here;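 also: potency is read from the fitted curve at half-maximal effect; % of control where 0% means no effect; nearly all actives have a fitted effect of over 65% in size; a mitochondrial uncoupler was the plate control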
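PINK1 protein level read as immunofluorescence by microplate cytometer in a fixed, stained stable cell line after 24 h exposure to five compound concentrations, with CCCP as control.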
TRPML1 agonist: activates the human TRPML1 channel | Q9GZU1 | TRPML1-expressing cells, Ca2+ dye fluorescence, FDSS; host cell line not named in the record; reference of the full effect not given here | activation, % (no concentration beside the values) | 0.12% of 410,000 active | AID 624414; in the data active = activation above about 50%; inconclusive = about 30% to 50%; inactive = below about 30%; also: 0% is about no effect; the text of the record puts the active cut at 80%
Target sequence (Q9GZU1 whole entry, looked up): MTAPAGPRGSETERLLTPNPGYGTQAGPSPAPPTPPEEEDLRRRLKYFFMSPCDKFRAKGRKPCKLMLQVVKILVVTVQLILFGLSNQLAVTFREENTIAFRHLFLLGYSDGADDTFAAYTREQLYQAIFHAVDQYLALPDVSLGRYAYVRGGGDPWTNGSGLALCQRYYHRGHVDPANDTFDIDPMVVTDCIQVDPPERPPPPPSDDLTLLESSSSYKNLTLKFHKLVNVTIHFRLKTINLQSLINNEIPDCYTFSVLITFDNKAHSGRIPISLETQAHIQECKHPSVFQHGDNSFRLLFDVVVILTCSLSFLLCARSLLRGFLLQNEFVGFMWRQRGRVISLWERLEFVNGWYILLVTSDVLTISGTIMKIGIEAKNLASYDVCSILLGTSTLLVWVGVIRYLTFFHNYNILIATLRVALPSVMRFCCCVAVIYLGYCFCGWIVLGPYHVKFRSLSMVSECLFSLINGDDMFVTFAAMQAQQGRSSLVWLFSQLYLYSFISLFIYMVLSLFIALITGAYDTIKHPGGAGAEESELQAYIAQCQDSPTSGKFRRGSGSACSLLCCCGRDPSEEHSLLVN
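Agonist activity was taken from a 110 s kinetic Ca2+ dye read on the FDSS after pinning compounds onto TRPML1-DL cells. The cells were seeded at 1,500/well with Tet inducer, incubated about 16 h, then dye-loaded at room temperature.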
CtBP-E1A blk: blocks the CtBP interaction with E1A | 0.49% of 340,000 active | activity change, % (no concentration beside the values) | AlphaScreen GST-E1A/His-CtBP binding, 1536-well; hits give low values; control for the full effect not named in the record; in the data active means activity change below about -65%; inconclusive means about -30% to -65%; inactive means above about -30%; also: % is scaled to controls: 0 for no effect and ±100 for the full control effect; compound concentration not given in the record
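GST-E1A and His-tagged CtBP (125 nM each as 5X stock) were preincubated with pin-transferred compound for 2 h at 37 °C in the dark, then glutathione donor and nickel acceptor beads were added for 1 h before AlphaScreen reading.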
Six1-Eya2 inh: Six1/Eya2 interaction inhibition. AlphaScreen GST-Six1/His-Eya2 binding, biochemical; hits give low values; control for the full effect not named in the record. Q15475+O00167. 0.56% of 360,000 active. activity change, % (concentration not given with the values); in the data active = activity change below about -65%; inconclusive = about -30% to -65%; inactive = above about -30%; also: % is scaled to controls: 0 for no effect and ±100 for the full control effect
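AlphaScreen luminescence read after one hour at 37 °C in darkness. Pin-transferred compounds met GST-Six1 and His-Eya2 protein (5X stock 250 nM/500 nM) plus glutathione donor and Ni-chelate acceptor beads (5X, 50 ug/mL).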
D2 agonist: agonists of human D2 dopamine receptor (beta-arrestin); P14416; DiscoveRx PathHunter D2 beta-arrestin, luminescence, 90 min; 100% = 57 uM dopamine signal; activation, % (test concentration not listed); 0.084% of 360,000 active; in the data active = activation above about 40%; inconclusive = about 15% to 40%; inactive = below about 15%; also: compound concentration not given in the record; the text of the record calls up to 30% inactive
Target sequence (P14416 whole entry, looked up): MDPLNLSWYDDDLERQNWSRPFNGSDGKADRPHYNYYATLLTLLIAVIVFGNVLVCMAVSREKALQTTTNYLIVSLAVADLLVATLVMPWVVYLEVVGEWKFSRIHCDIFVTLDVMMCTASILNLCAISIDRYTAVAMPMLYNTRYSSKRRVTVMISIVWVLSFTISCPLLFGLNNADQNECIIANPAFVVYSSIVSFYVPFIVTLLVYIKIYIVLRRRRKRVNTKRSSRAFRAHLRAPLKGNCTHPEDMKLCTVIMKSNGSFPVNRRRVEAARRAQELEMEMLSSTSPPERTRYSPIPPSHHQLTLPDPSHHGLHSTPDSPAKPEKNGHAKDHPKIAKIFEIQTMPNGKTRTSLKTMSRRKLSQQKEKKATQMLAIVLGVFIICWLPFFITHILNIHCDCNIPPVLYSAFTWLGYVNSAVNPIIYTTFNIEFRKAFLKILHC
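Agonist mode: compounds alone added to overnight-plated D2 PathHunter cells for 90 min at 37 C, with 57 uM final dopamine (EC100) defining full response. Beta-arrestin recruitment detected by chemiluminescent reagent, read after 1 h at ambient temperature.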
TRPML1 inh: inhibitors of human TRPML1 channel | Q9GZU1 | TRPML1-inducible cells, Ca2+ dye fluorescence, FDSS; hits give low values; inhibition of EC80 agonist-evoked calcium signal | activity change, negative = inhibition, % (test concentration not listed) | 0.02% of 390,000 active | AID 624415; in the data active means activity change below about -50%; inconclusive means about -30% to -50%; inactive means above about -30%;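 also: stimulus is agonist 54-4 at its EC80 concentration; % is scaled to controls: 0 for no effect and ±100 for the full control effect; compound concentration not given in the record; the text of the record puts the active cut at -80%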
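Calcium fluorescence in TRPML1-DL cells induced overnight with Tet: a 110 s read after compound pin addition, then a 110 s antagonist read after challenge with 54-4 at 4 uM final (EC80).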
An asterisk follows results filed as active; ? = inconclusive; / = no result given; [ ] = another dose, or the depositor's remark. Compounds were not picked by outcome (roughly 1% active in at least one column).

compound | PINK1 modulator | TRPML1 agonist | CtBP-E1A blk | Six1-Eya2 inh | D2 agonist | TRPML1 inh
O=C(NCc1cccnc1)c1ccc(CS(=O)(=O)Cc2ccc(Cl)cc2)o1 | 1.3% | 4.0 | 3.6 | -1.3 | 1.7 | 4.4
CCOc1ccc(CCNCc2c(C(=O)O)n(Cc3ccc(C)cc3)c3cc(OC)ccc23)cc1 | 0.7% | 1.5 | / | / | / | 13.8
Cc1c(C(=O)NCCCN2CCOCC2)sc2nc(-c3ccc(F)cc3)cn12 | -1.5%[38.3 µM] | 3.8 | 19.2 | -7.6 | 1.8 | -8.1
Cc1ccc(S(=O)(=O)N2CCN(c3ncccn3)CC2)c(C)c1 | -1.0% | 0.4 | 2.1 | 4.1 | -4.6 | 3.3
Cc1ccccc1NC(=O)C(Cc1ccccc1)N1Cc2ccccc2C1=O (configuration not stated) | 4.8% | 1.1 | / | / | / | 8.9
Cc1nnc(NC(=O)c2c(-c3ccccc3)noc2C)s1 | -0.3% | 0.4 | 8.0 | -1.3 | -2.2 | 9.3
N#Cc1c(Cl)cccc1N1CCCC1 | -1.0% | 2.3 | 3.5 | 20.6 | -0.8 | -9.9
COc1ccc(-c2noc(C3CCCN(C(=O)c4ccc(F)cc4)C3)n2)cc1 (configuration not stated) | 4.4% | 0.6 | -1.8 | -2.5 | 4.7 | 23.9
CC(C(=O)C12CC3CC(CC(C3)C1)C2)N1CCOCC1 (configuration not stated) | -0.6% | -0.2 | -6.2 | -7.3 | -3.3 | 2.3
O=C1CCC(C(=O)N2CCCCO2)CN1CCc1ccc(Cl)cc1 (configuration not stated) | 1.2% | 0.0 | -2.2 | 0.5 | -5.6 | -3.8
O=C(CSc1nc2ccccc2[nH]1)N1CCN(c2ccc(F)cc2)CC1 | -2.7% | -0.8 | -0.9 | -7.6 | -1.4 | 12.5
COc1ccc2oc(C(=O)OCC(=O)Nc3ccccc3OC)c(C)c2c1 | 5.7% | 3.7 | 3.1 | -5.2 | -2.4 | 13.4
COc1cccc(CN2C(=O)C3(SCC(=O)N3c3ccc(F)cc3)c3ccccc32)c1 (configuration not stated) | 1.3% | -0.2 | / | / | / | 30.2
O=C(NC1(C(F)(F)F)NC(=O)N(CCc2ccccc2)C1=O)c1ccccc1Cl (configuration not stated) | 0.8% | 0.5 | / | / | / | -5.0
CN(C(=O)c1ccc(Oc2ccc([N+](=O)[O-])cc2)cc1)C1CCCCC1 | 2.7% | 0.5 | -17.4 | -7.1 | 3.8 | 32.8
CC1(C(=O)Nc2ccc(Cl)c(Cl)c2)CCN1C(=O)CC1CCCC1 (configuration not stated) | 8.8% | 1.5 | 3.0 | 16.1 | -2.5 | /
CCOC(=O)c1c(S(=O)(=O)N2CCCC(C(=O)Nc3cc(C)ccn3)C2)c(C)n(C)c1C (configuration not stated) | -0.2% | -1.3 | / | / | / | -7.3
O=C(CSCc1ccccc1)Nc1cc([N+](=O)[O-])ccc1F | 0.4% | 0.9 | / | -2.1 | -0.2 | -10.0
Cc1ccc(NC(=O)CCN2C(=O)c3ccccc3C2=O)c(C)c1 | 1.8% | -1.6 | 13.2 | 0.1 | -2.1 | 5.3
C=CC[C@H](CC(=O)N(CCO)Cc1ccccc1)C(=O)N[C@@H](COC(=O)[C@@H](CC=C)Cc1ccc(F)cc1)Cc1ccccc1 | 3.8% | 1.2 | 1.5 | -7.0 | -9.1 | 7.6
COc1cc(C2C3=C(CC(C)(C)CC3=O)OC3=C2C(=O)CC(C)(C)C3)cc([N+](=O)[O-])c1O | -0.3% | 1.6 | 11.7 | 7.4 | -10.6 | 38.5
Cc1ccc(S(=O)(=O)N2CCOCC2)cc1NC(=O)CSc1nnc(N)s1 | 2.2% | 0.1 | -3.1 | 1.9 | -0.2 | -9.1
COc1ccc(/C=N/NC(=O)c2cccc(S(=O)(=O)N3CCCC3)c2)cc1O | 0.3% | 2.0 | ? | -13.8 | 0.1 | 0.8
O=S(=O)(/N=C/N1CCOCC1)c1ccc(Cl)cc1 | 0.5% | 0.0 | 2.1 | 3.6 | 2.0 | 1.5
CC(=O)N1CCOc2ccc(S(=O)(=O)N3C(C)CCCC3C)cc21 (configuration not stated) | 1.2% | -0.1 | 1.7 | -0.7 | -2.2 | -13.7
COC(=O)c1cc2cc(OC)ccc2n1C | 3.1% | 3.8 | 10.7 | 4.8 | -2.7 | 23.7
CCSc1nc2n(n1)C(c1ccc(CC)cc1)C(C(=O)Nc1ccccc1OC)=C(C)N2 (configuration not stated) | 5.1% | 1.7 | / | / | / | -10.1
O=C(CC12CC3CC(CC(C3)C1)C2)N/N=C/c1ccc([N+](=O)[O-])o1 | -2.8% | -0.1 | 11.2 | 4.7 | -0.2 | 16.1
NC(=S)Nc1cccc2cnccc12 | -1.1% | 0.2 | -3.7 | 10.9 | -0.6 | 32.0
COC(=O)CCCC1=CC2=CC(=O)C(C)(OC(=O)c3cccs3)C(=O)C2=CN1CCCOC(C)C (configuration not stated) | -0.9% | 3.0 | -5.8 | -5.7 | 6.2 | -15.2
Cc1cc(C)c(NC(=O)CSc2cn(CC(=O)N3CCOCC3)c3ccccc23)c(C)c1 | 0.8% | 1.6 | / | / | / | -9.2
CCc1cccc(CC)c1NC(=O)c1cccc(NC(=O)c2ccccc2)c1 | 3.8% | 0.2 | -9.0 | -13.1 | -2.7 | 65.5
COc1ccc(Cl)cc1C(=O)NNC(=O)c1[nH]c(C)c(C(C)=O)c1C | 13.4% | 0.5 | -2.3 | -11.2 | 0.1 | -9.4
NS(=O)(=O)c1cccc(NC(=O)c2ccccc2NS(=O)(=O)c2ccc(F)cc2)c1 | 1.5% | -0.5 | -10.5 | 0.6 | -1.4 | 7.0
O=C(CCNC(=O)C1CCN(S(=O)(=O)c2ccccc2)CC1)NCc1cccc(Cl)c1 | -0.5% | 0.0 | / | -1.8 | -0.2 | -13.7
O=C(CN1C(=O)c2cccc3cccc1c23)NC1CCCCC1 | 13.8% | 0.7 | -5.3 | -7.6 | -0.4 | -10.4
COc1cc(-c2noc(CCCC(=O)NCc3ccccc3)n2)cc(OC)c1OC | 0.4%[38.3 µM] | 2.1 | 2.1 | -2.6 | -0.6 | 12.3
Cc1ccc2nc(NCc3ccccc3)[nH]c2c1 | 13.2% | -0.2 | -4.5 | -5.0 | -2.3 | -12.9
COc1ccc(C2C(C(=O)Nc3ccc(Cl)cc3)=C(C)Nc3nc(SCc4cccc(C)c4)nn32)cc1OC (configuration not stated) | 0.8% | -0.3 | / | / | / | 11.8
Cc1c(Cl)cccc1NC(=O)CCS(=O)(=O)c1ccc2c(c1)CC(C)N2C(=O)C1CC1 (configuration not stated) | 2.1% | -0.9 | / | / | / | 10.3
O=C(Cc1ccc(Cl)cc1)Nc1cccc(-c2nnc(-c3ccco3)o2)c1 | ? | 0.9 | 4.1 | 2.3 | -0.7 | 37.6
CCOc1ccc(CNc2cc(C)nc3nc(-c4cccc(C)c4)nn23)cc1OC | 1.4% | 2.3 | / | / | / | 15.8
O=C1CC(c2ccccc2)CC(O)=C1C=Nc1cccc(Cl)c1 (configuration not stated) | 2.8% | -0.8 | 5.0 | -1.4 | 2.2 | 6.0
Cc1ccc(C)c(S(=O)(=O)N2CCCC2CNC(=O)C(=O)NC2CCCC2)c1 (configuration not stated) | 3.1% | -0.1 | 1.2 | 10.9 | 4.0 | 12.9
CC1(C)CC(=O)C2=C(C1)NC(=O)CC2 | -0.7% | -0.5 | -5.7 | 2.4 | -7.3 | /
O=C(CSc1cccc2cccnc12)OCC(=O)c1ccc(Br)cc1 | -0.1% | -0.6 | -29.0 | -14.9 | -5.1 | -15.4
CCC(C)(C)n1nnnc1CN1CCN(c2nc3ccc(C)cc3cc2C#N)CC1 | -0.8% | -0.1 | 21.3 | 15.6 | -5.2 | -8.5
CCCOC(=O)Cc1c(O)c2ccccc2[nH]c1=O | -1.1% | -0.4 | -6.6 | -6.2 | -5.1 | -5.8
Nc1ccccc1C(=O)/C=C/c1ccc2c(c1)OCO2 | -1.5% | 2.2 | 0.1 | 0.1 | -3.2 | 14.3
C=CCn1c(SCC(=O)NC2CCCCC2)nnc1-c1ccc(OC)cc1 | -1.1% | 1.1 | 2.5 | -0.4 | 2.8 | -2.7

The last 4 compounds of the section above come first, to join the parts:
compound | PINK1 modulator | TRPML1 agonist | CtBP-E1A blk | Six1-Eya2 inh | D2 agonist | TRPML1 inh
CCC(C)(C)n1nnnc1CN1CCN(c2nc3ccc(C)cc3cc2C#N)CC1 | -0.8% | -0.1 | 21.3 | 15.6 | -5.2 | -8.5
CCCOC(=O)Cc1c(O)c2ccccc2[nH]c1=O | -1.1% | -0.4 | -6.6 | -6.2 | -5.1 | -5.8
Nc1ccccc1C(=O)/C=C/c1ccc2c(c1)OCO2 | -1.5% | 2.2 | 0.1 | 0.1 | -3.2 | 14.3
C=CCn1c(SCC(=O)NC2CCCCC2)nnc1-c1ccc(OC)cc1 | -1.1% | 1.1 | 2.5 | -0.4 | 2.8 | -2.7
COc1ccc(S(=O)(=O)NCC(c2ccco2)N2CCc3ccccc32)cc1 (configuration not stated) | 14.3% | 0.7 | -11.5 | -21.4 | -2.8 | -9.3
CCCNC(=O)c1c(CSc2ccccc2)noc1C(=O)NCc1ccccc1 | 2.1% | 4.0 | / | 13.1 | -1.7 | 39.9
CCOC(=O)C(NC(=O)CC)(Nc1ccc(S(=O)(=O)Nc2onc(C)c2C)cc1)C(F)(F)F (configuration not stated) | 1.3% | -0.8 | 2.7 | 1.6 | -0.5 | -0.4
COc1ccc(NC(=O)CN2CCN(C3c4ccccc4-c4ccccc43)CC2)cc1 | 0.9%[38.3 µM] | 1.1 | -16.4 | -14.6 | 2.9 | 1.4
CC(C)C[C@@H](CN1CCC[C@@H]1CN1C(=O)C(=O)NC[C@@H]1Cc1ccccc1)N1C[C@H](Cc2ccccc2)N(CC2CCCCC2)C(=O)C1=O | 4.9% | -1.1 | -1.4 | -1.0 | / | /
CCC1CN(S(=O)(=O)c2cc(-c3cc(C)no3)ccc2OC)c2cc(Cl)ccc2O1 (configuration not stated) | 3.2% | 1.3 | / | / | / | 34.4
Cc1[nH]n(-c2ccccc2)c(=O)c1/C=N/NC(=O)c1cccc(F)c1 | 1.6% | 1.7 | / | -92.3* | -6.9 | 12.8
CCOC(=O)c1cc(-c2ccccc2)sc1NC(=O)COC(=O)c1cccc(S(N)(=O)=O)c1 | 1.4% | 0.8 | 4.2 | 4.7 | 12.4 | 4.0

Source: PubChem (National Center for Advancing Translational Sciences (NCATS))
